Methyltransferases: Primary Screen for Target Class Profiling of Small Molecule Inhibitors of Methyltransferases; AID 1745853, 2022; hit rate 3.9% among 25,000; calls only at 40 µM; purified enzyme, MTase-Glo SAH luminescence; hits give low values; active = -50% or lower on at least one of six enzymes; inconclusive = the cases between; inactive = as a rule above -30% on all six;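 further: enzymes were COMT GAMT GNMT HNMT NNMT and PNMT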
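Each enzyme was assayed with SAM and its substrate. SAH formation detected by MTase-Glo luminescence; single-point 40 uM screen[…].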
Calls only; i = inactive; ? = inconclusive; + = active, no number. On the % scale 0 is the no-effect control and ±100 the full control effect. This is a subset; rates above refer to the full screens.

A first look (twelve entries):
SMILES	Methyltransferases
CN(C)c1cccc(C(=O)Nc2ncc(-c3cnn(C)c3)c3c2OCC3)c1	i
CN1c2cc(C(=O)NC3CCCCCC3)ccc2C(=O)N2CCCC21 (configuration not stated)	i
O=C(O)C1Cc2c([nH]c3ccccc23)C(c2ccccc2Br)N1 (configuration not stated)	i
O=C(NCc1ccc2c(c1)OCO2)c1sc(=S)n2c1[nH]c(=O)c1ccccc12	+
CCc1ccc(S(=O)(=O)N2[C@@H]3CC[C@H]2CC(NC(=O)c2ccc(F)cc2)C3)cc1 (some centres not stated)	i
O=C1N2CCCC2CN1C1CCN(Cc2ccsc2)CC1 (configuration not stated)	i
CC(C)CCNC(=O)C1(C)Cn2c(cc3ccccc32)C(=O)N1Cc1cccc(F)c1 (configuration not stated)	i
CC(C)Cn1c(=O)c2ccccc2n2c(CCC(=O)N3CCN(C(c4ccccc4)c4ccccc4)CC3)nnc12	i
CCn1c(=O)[nH]c2ccc3c(c21)C(=O)c1ccccc1C3=O	i
CN1C(=O)c2cc(C(=O)NCc3ccccc3Cl)nn2CC1(C)C(=O)NC1CCCCC1 (configuration not stated)	i
CCO[C@H]1CN(C(=O)C(C)(C)Oc2ccc3c(c2)CCC3)C[C@@H]1O	i
CNC(=O)CC1CCOC2(CCN(S(=O)(=O)c3cc(OC)ccc3OC)CC2)C1 (configuration not stated)	i

The whole of this part, from the start:
SMILES	Methyltransferases
CN(C)c1cccc(C(=O)Nc2ncc(-c3cnn(C)c3)c3c2OCC3)c1	i
CN1c2cc(C(=O)NC3CCCCCC3)ccc2C(=O)N2CCCC21 (configuration not stated)	i
O=C(O)C1Cc2c([nH]c3ccccc23)C(c2ccccc2Br)N1 (configuration not stated)	i
O=C(NCc1ccc2c(c1)OCO2)c1sc(=S)n2c1[nH]c(=O)c1ccccc12	+
CCc1ccc(S(=O)(=O)N2[C@@H]3CC[C@H]2CC(NC(=O)c2ccc(F)cc2)C3)cc1 (some centres not stated)	i
O=C1N2CCCC2CN1C1CCN(Cc2ccsc2)CC1 (configuration not stated)	i
CC(C)CCNC(=O)C1(C)Cn2c(cc3ccccc32)C(=O)N1Cc1cccc(F)c1 (configuration not stated)	i
CC(C)Cn1c(=O)c2ccccc2n2c(CCC(=O)N3CCN(C(c4ccccc4)c4ccccc4)CC3)nnc12	i
CCn1c(=O)[nH]c2ccc3c(c21)C(=O)c1ccccc1C3=O	i
CN1C(=O)c2cc(C(=O)NCc3ccccc3Cl)nn2CC1(C)C(=O)NC1CCCCC1 (configuration not stated)	i
CCO[C@H]1CN(C(=O)C(C)(C)Oc2ccc3c(c2)CCC3)C[C@@H]1O	i
CNC(=O)CC1CCOC2(CCN(S(=O)(=O)c3cc(OC)ccc3OC)CC2)C1 (configuration not stated)	i
CC1(C)C[C@H]2C3=CCC4[C@@]5(C)CC[C@H](O[C@H]6O[C@H](C(=O)O)[C@@H](O)[C@H](O)[C@H]6O[C@H]6O[C@H](CO)[C@@H](O)[C@H](O)[C@H]6O[C@@H]6O[C@H](CO)[C@@H](O)[C@H](O)[C@H]6O)[C@](C)(CO)C5CC[C@@]4(C)[C@]3(C)CC[C@@]2(C)[C@H](O[C@@H]2OC[C@H](O)[C@H](OC3O[C@H](CO)[C@@H](O)[C@H](O)[C@H]3O)[C@H]2O)[C@@H]1O (some centres not stated)	i
CCOCCCNC(=O)CCc1nnc2n(CCC(C)C)c(=O)c3ccccc3n12	i
CCOc1ccc(CCN2C(=O)c3cc4ccccc4n3CC2(C)C(=O)NCc2ccccc2)cc1 (configuration not stated)	i
CCCn1c(=O)c2ccc(Cl)cc2n2c(=O)n(CC(=O)Nc3ccc(CC)cc3)nc12	i
N#Cc1cc(CN2CCC(Nc3ncnc4sc(Cl)cc34)CC2)ccc1F	?
COC(=O)C1=CO[C@@H](O[C@@H]2O[C@H](CO)[C@@H](O)[C@H](O)[C@H]2O)[C@H]2[C@@H]1[C@H](O)[C@H](O)[C@]2(C)O	i
CCCCCCCC/C=C\CCCCCCCC(=O)NCCc1ccc(O)c(O)c1	i
c1ccc2c(Nc3nnc(-c4ccncc4)s3)cccc2c1	i
O=C(c1ccc(Cn2ccn3nc4c(c3c2=O)CCCC4)cc1)N1CCN(c2ccccn2)CC1	i
COc1ccc(NS(=O)(=O)c2cc3c(cc2Cl)n(C)c(=O)n3C)cc1OC	i
Cn1c(=O)c2ccc(C(=O)NC3CCCCC3)cc2n2c(=O)n(Cc3cccc(Cl)c3)nc12	i
O=C(CCCCCCSc1ccc2ccccc2c1)NO	?
Cc1ccc(CN2C(=O)c3ccc(-c4ccco4)n3CC2(C)C(=O)NCc2ccccc2)cc1 (configuration not stated)	i
COc1ccccc1CN1C(=O)c2cc3occc3n2CC1(C)C(=O)NC1CCCC(C)C1C (configuration not stated)	i
COc1ccc(N2C(=O)c3cc4sccc4n3CC2(C)C(=O)NC2CCCC(C)C2C)cc1OC (configuration not stated)	i
COc1ccc(-c2ccc(C(=O)NCc3cccc(Cl)c3)cc2)nn1	i
Cc1cccc(N2C(=O)CSc3c(c4ccccc4n3C)C2C(=O)NCc2ccccc2)c1C (configuration not stated)	i
CC(=O)N1CC(CO)C2(CCN(C(=O)c3nccc4ccccc34)CC2)C1 (configuration not stated)	i
Cn1ccnc1CN1CCN(c2nccc(-c3cccnc3)n2)CC1	i
CC(C)c1ccc(CC(=O)N2CCC[C@@H](c3cccc(OC(C)(C)C(=O)O)c3)C2)cc1	i
O=C1CCN(S(=O)(=O)c2ccccc2)CCCN(C(=O)c2c[nH]c3ccccc23)CCN1	i
N=C(N)c1ccc(N)cc1	i
CCC[C@H]1CN(C(=O)CCc2ccccc2C)C[C@@H]1N	i
O=C1CCC2(CCN1Cc1ccccc1)CCN(C(=O)c1ccccc1F)CC2	i
C=CCNC(=O)C[C@@H]1CCN(C(=O)c2ccccc2)C[C@@H]1CC	i
Cc1ccc(NC(=O)Cn2nc3n(CCCOC(C)C)c(=O)c4ccccc4n3c2=O)c(C)c1	i
COc1ccc(N2CC3CCC(C2)N3Cc2cccc(Cl)c2)cc1	i
Cc1ccc(CNC(=O)C2(C)Cn3nc(C(=O)NCCC4=CCCCC4)cc3C(=O)N2C)cc1 (configuration not stated)	i
CC(C)c1cc2n(n1)CC(C)(C(=O)NC1CCCCCC1)N(Cc1cccc(Cl)c1)C2=O (configuration not stated)	i
Cn1nc(C(=O)NC2CC2)c2c1CN(C(=O)Cc1cccc(F)c1)C2	i
CCCn1c(C)cnc1CC1CCN(S(=O)(=O)c2ccccc2)C1 (configuration not stated)	i
C/C(=C\CC[C@@H](C)[C@H]1CC(O)[C@@]2(C)C3CC[C@H]4C(C)(C)[C@@H](OC5OCC(O)C(O)C5OC5OC(CO)C(O)C(O)C5O)CC[C@@]45C[C@@]35CC(O)[C@]12C)C(=O)O (some centres not stated)	i
Cc1cccc(Cn2nc3n(Cc4ccccc4)c(=O)c4ccc(C(=O)NC(C)C)cc4n3c2=O)c1	i
CNC(=O)c1cc(C2CC2)nc2c1c(C1CCCN(C(=O)Cc3ccccn3)C1)nn2C (configuration not stated)	i
COCCCNC(=O)C1(CCO)CCN(c2ncccn2)C1 (configuration not stated)	i
CCCn1c(=O)c2ccc(Cl)cc2n2c(=O)n(CC(=O)N3CCN(c4ccc(F)cc4)CC3)nc12	i
CCN1C(=O)c2cc(C(=O)Nc3ccc(C)cc3C)nn2CC1(C)C(=O)NC1CCCC1 (configuration not stated)	i
CN(C(=O)c1ccccc1)C1CCOc2ccccc21 (configuration not stated)	i
CC1(C(=O)NC2CCCCCC2)Cn2c(cc3sccc32)C(=O)N1CCCc1ccccc1 (configuration not stated)	i
CN(CC(=O)N1CCC(Cc2ccccc2)CC1)S(=O)(=O)c1ccc2[nH]c3c(c2c1)CCCC3	i
O=C1OCC2(CCN(Cc3c[nH]c4ccccc34)C2)N1Cc1ccccc1 (configuration not stated)	i
COC(=O)c1cc(OC)cc(OC)c1C(=O)c1c(OC)cc2c(c1O)C1CCCC(C)(O2)O1 (configuration not stated)	i
CCOC(CN1CCN(CC(C)C(=O)c2ccccc2)CC1)c1ccccc1 (configuration not stated)	i
CCCC1c2ccc(C)n2CCN1C(=O)Nc1cc(C)cc(C)c1 (configuration not stated)	i
CC1CC(C)CN(CCCNC(=O)C2(C)Cn3c(cc4ccccc43)C(=O)N2Cc2cccs2)C1 (configuration not stated)	i
CCC1c2ccc(C)n2CCN1C(=O)Nc1cc(OC)ccc1OC (configuration not stated)	i
CC1CCC2C(C)(C)C(O)CCC2(C)C12Cc1c(O)cc3c(c1O2)CN(C(CCC(N)=O)C(=O)O)C3=O (configuration not stated)	i
CNC(=O)N1CCC(C2CCN(C(=O)c3cnccn3)C2)CC1 (configuration not stated)	i
The list continues:
SMILES	Methyltransferases
COc1cccc(N2CCN(C(=O)CCc3nnc4n(Cc5ccc(F)cc5)c(=O)c5ccccc5n34)CC2)c1	i
CCC(C)NC(=O)c1ccc2c(=O)n(CCC(C)C)c3nn(Cc4cccc(Cl)c4)c(=O)n3c2c1 (configuration not stated)	i
CCCCNc1nc2c(-c3cccc(F)c3)nnn2c2ccccc12	i
CCN1CCN(C(=O)N[C@@H](C(=O)N[C@@H]2C(=O)N3[C@@H]2SC(C)(C)[C@@H]3C(=O)O)c2ccccc2)C(=O)C1=O	i
CC(C)[C@H]1CN(CCS(C)(=O)=O)C[C@@H]1NC(=O)c1ccco1	i
CC1(C(=O)NC2CCCCC2)Cn2c(nc3ccccc32)C(=O)N1Cc1ccccc1F (configuration not stated)	i
NC(=O)NCC(=O)N1CCc2cc(S(=O)(=O)NCc3cccs3)ccc2C1	i
CCCCN1C(=O)NC(c2ccc(OC)cc2)C2=C1COC2=O (configuration not stated)	i
CC(C)(C)n1nc(-c2ccc(Cl)cc2)c2c(N)ncnc21	?
COCC1CN(C2CCC2)CC12CCN(C(=O)c1ccsc1)CC2 (configuration not stated)	i
CC(C)n1c(=O)c2ccc(C(=O)NC3CCCC3)cc2n2c(=O)[nH]nc12	i
Cc1ccc(S(=O)(=O)c2nnn3c2nc(NCc2ccc4c(c2)OCO4)c2ccccc23)cc1C	i
CCCNC(=O)C1C(c2ccc(NC(=O)c3ccco3)cc2)OC(=O)N1Cc1ccccc1 (configuration not stated)	i
CC1=NOC2(CCN([S+](=O)([O-])c3c(C)noc3C)C2)C1 (configuration not stated)	i
C[C@]1(O)CC[C@@H]2C(C(=O)O)=CO[C@@H](O[C@@H]3O[C@H](CO)[C@@H](O)[C@H](O)[C@H]3O)[C@@H]21	i
O=C(Nc1nc2ccccc2s1)c1ccc2c(c1)OCCN(CCC(F)(F)F)C2	i
CCOC(=O)c1cc2n(n1)CC(C)(C(=O)NC1CCCCCC1)N(c1ccccc1OC)C2=O (configuration not stated)	i
CCn1ccc(C(=O)N2[C@@H]3CC[C@H]2CC(NC(=O)c2ccc(F)cc2)C3)n1 (some centres not stated)	i
NCCOc1cc(C(=O)Nc2cc(OCCN)c3ccccc3n2)nc(C(=O)Nc2cc(OCCN)c3ccccc3n2)c1	+
Cc1cc(CN)cc(C)c1NC(=O)c1ccc(-c2cc(Cl)ccc2Cl)o1	?
CCOC(=O)c1cc2n(n1)CC(C)(C(=O)NCc1ccc(F)cc1)N(Cc1cccc(OC)c1)C2=O (configuration not stated)	i
CC1(C)Oc2ncnc(N)c2N=C1c1ccc(C23CCC(CC(=O)O)(CC2)CC3)cc1	?
CCN1Cc2ccccc2N(CC(O)Cc2ccccc2)CCC1=O (configuration not stated)	i
CC[C@@H](C)[C@H]1C(=O)O[C@H](C(C)C)C(=O)N(C)[C@@H](C(C)C)C(=O)O[C@H](C(C)C)C(=O)N(C)[C@@H](C(C)C)C(=O)O[C@H](CC(C)C)C(=O)N1C	i
O=C(NCC1CN(c2ccc(N3CCOCC3=O)cc2)C(=O)O1)c1ccc(Cl)s1 (configuration not stated)	i
COc1cc(F)ccc1-c1nc(-c2c(C)noc2C)cc2[nH]c(C)cc12	?
CN(C)Cc1nnc(C2CC(NC(=O)CC3Cc4ccccc4C3)C2)n1C (configuration not stated)	i
COc1ccc(C2NC(C(=O)O)Cc3c2[nH]c2ccccc32)cc1OC (configuration not stated)	i
COc1cccc(CN2C(=O)c3cc4sccc4n3CC2(C)C(=O)NC2CCCCCC2)c1OC (configuration not stated)	i
COC[C@@H]1CN(C(=O)Cc2c(C)noc2C)C[C@H]1c1ccccn1	i
Cc1cc(C(=O)N2CCCC(n3c(C)cnc3C3CCC3)C2)nn1C (configuration not stated)	i
COc1cc(OC)cc(N2C(=O)CSc3c(c4ccccc4n3C)C2C(=O)NCc2ccccc2OC)c1 (configuration not stated)	i
COc1ccc(-c2cc3n(n2)CC(C)(C(=O)NCc2ccccc2)N(CCc2ccccc2)C3=O)cc1 (configuration not stated)	i
O=C(CSc1nnnn1-c1ccccc1)Nc1ccc2[nH]c(=O)[nH]c2c1	i
CCOC(=O)c1cc2n(n1)CC(C)(C(=O)NCc1ccccc1)N(c1ccc3c(c1)OCO3)C2=O (configuration not stated)	i
c1cc(CN2CCCCC2)cc(OCCCNc2nc3ccccc3s2)c1	+
Cn1c(=O)[nH]cc(CC(=O)NCc2cccnc2-n2ccnc2)c1=O	i
CCOC(=O)c1cc2n(n1)CC(C)(C(=O)NC1CCC(C)CC1)N(c1cc(C)cc(C)c1)C2=O (configuration not stated)	i
CC1CCCC(NC(=O)C2(C)Cn3c(nc4ccccc43)C(=O)N2Cc2cccc(Cl)c2)C1C (configuration not stated)	i
Cc1ccc(CNC(=O)c2ccc3c(=O)nc4c(-c5ccc(C)cc5)n[nH]n4c3c2)cc1	i
CN1C(=O)c2cc(C(=O)NCc3ccco3)nn2CC1(C)C(=O)NC1CCCCC1 (configuration not stated)	i
CC(c1ccc(-c2cc(N3CCN(C)CC3)nc(N)n2)cc1)N1CCOCC1 (configuration not stated)	?
